Rce1 inhib: yeast Ras-converting enzyme inhibition | Q03530 | yeast membranes, quenched prenylated peptide cleavage fluorescence | calls only | hit rate 0.27% among 290,000 | AID 2563;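 active = fall in fluorescence gain of 50% or more versus controls, with final raw signal at or below 3038400; inconclusive = same 50% fall but final raw signal above 3038400; inactive = fall in fluorescence gain under 50%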;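 also: plate controls were neutral control wells for no effect and wells lacking membranes for full effect; tested at 10 µM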
Target sequence (Q03530 whole entry, looked up): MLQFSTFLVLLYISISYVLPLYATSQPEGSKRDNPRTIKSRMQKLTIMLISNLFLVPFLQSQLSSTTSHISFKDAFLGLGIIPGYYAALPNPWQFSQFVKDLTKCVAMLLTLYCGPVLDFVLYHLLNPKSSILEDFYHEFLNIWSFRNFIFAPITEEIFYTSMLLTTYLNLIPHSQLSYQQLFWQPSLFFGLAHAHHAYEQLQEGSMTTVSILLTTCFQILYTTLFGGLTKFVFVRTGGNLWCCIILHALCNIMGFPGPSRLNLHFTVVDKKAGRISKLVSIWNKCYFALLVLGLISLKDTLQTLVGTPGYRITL
Yeast UUG start: alters start codon recognition fidelity in yeast. AID 602363. S. cerevisiae UUG-firefly luciferase reporter, luminescence/redox ratio. hit rate 0.13% among 350,000. activity score, % at 18.7 µM;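 active = replicate mean at a twofold rise or more, about +100% in these data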;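 also: firefly luciferase made from a UUG start codon reports start codon fidelity; reporter light over untreated wells divided by growth signal over untreated wells; some hits fall short of that in this replicate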
Env fusion inh: HIV envelope-mediated fusion inhibition; HeLa-JRFL Env/CEM21 cell fusion, luciferase; hit rate 1.1% among 360,000; inhibition, % at 12.3 µM; AID 651610;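 active = mean replicate inhibition score of at least 50 and every replicate individually at or above 50; inconclusive = only one of the two criteria met; inactive = mean below 50 and not all replicates reaching 50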;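 also: 0% = plate neutral controls and 100% = maraviroc near 300 nM; one replicate is shown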
eIF4H FP inh: inhibitors of RNA binding by human eIF4H; Q15056; eIF4H fluorescence polarization binding assay; hit rate 0.94% among 290,000; inhibition, % at 35 µM;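 active = 50% or more with normal probe brightness, or confirmed in later tests; inconclusive = above 50% with abnormal brightness, or retests that disagree; inactive = below 50% or failed in later tests; about a fifth of its hits are not listed in these tables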;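 also: calls also rest on retests at 20 µM and on dose response follow-up; 0% = protein and probe with vehicle and 100% = probe without protein; strong numbers were not always called active; many hits fall short of the cut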
MT1-MMP act inh: blocks activation of human MT1-MMP | P50281 | HT1080 RFP-PRO-GFP cells, GFP/RFP ratio fluorescence, overnight; percent of plate control window, DMSO zero | GFP/RFP ratio change, % at 20 µM | hit rate 0.061% among 360,000 | AID 651647;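 active = GFP/RFP ratio change of at least 30% with cell ATP level not reduced by more than half and red fluorescence within 50% of control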; also: strong numbers were not always called active
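Material – HT1080 RFP-PRO-GFP cells · Control set – DMSO wells and RFP-L50D-GFP cells · Incubation – overnight cell settling, then overnight compound exposure, 37 °C, 5% CO2 · Compound dosing – single-point 20 µM compound, 1% DMSO · Read-out – GFP/RFP fluorescence ratio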
PABP FP inh: PABP-poly(A) binding inhibition; inhibition, % at 35 µM; PABP-poly(A) RNA binding, fluorescence polarization; P11940; hit rate 1% among 290,000;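 active = 50% or more with normal probe brightness, or confirmed in later tests; inconclusive = above 50% with abnormal brightness, or retests that disagree; inactive = below 50% or failed in later tests; about a fifth of its hits are not listed in these tables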;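 also: calls also rest on retests at 20 µM and on dose response follow-up; controls were probe without protein and protein plus probe with vehicle; some compounds called inactive have numbers as strong as hits; many hits fall short of the cut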
Target sequence (P11940 whole entry, looked up): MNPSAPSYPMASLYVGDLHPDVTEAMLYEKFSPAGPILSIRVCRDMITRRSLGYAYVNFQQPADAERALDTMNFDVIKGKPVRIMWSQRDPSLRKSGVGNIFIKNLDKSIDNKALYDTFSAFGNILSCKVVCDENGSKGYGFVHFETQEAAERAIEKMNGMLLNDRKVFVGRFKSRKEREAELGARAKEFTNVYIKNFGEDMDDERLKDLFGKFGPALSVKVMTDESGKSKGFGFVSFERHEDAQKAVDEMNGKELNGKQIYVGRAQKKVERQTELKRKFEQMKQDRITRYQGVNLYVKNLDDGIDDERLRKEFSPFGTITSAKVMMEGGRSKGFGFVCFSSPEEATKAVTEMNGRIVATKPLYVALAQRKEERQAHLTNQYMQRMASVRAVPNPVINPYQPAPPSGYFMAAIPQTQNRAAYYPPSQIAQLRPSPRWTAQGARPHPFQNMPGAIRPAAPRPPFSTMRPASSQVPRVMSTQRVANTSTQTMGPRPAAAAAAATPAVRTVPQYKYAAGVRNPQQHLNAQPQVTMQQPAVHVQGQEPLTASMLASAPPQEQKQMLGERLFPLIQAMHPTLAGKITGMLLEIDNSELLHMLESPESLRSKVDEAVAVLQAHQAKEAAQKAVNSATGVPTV
CSC inhib: cancer stem cell inhibition. cancer stem cell-like cells viability, luminescence. inhibition, % at 7.5 µM. hit rate 1.1% among 300,000. AID 2717;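 active = mean at 75% or more and at least half the replicates too; inconclusive = mean and replicates disagree; tested in HMLE shEcad cells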;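 also: 0% = median of negative and 100% = median of positive control wells; the first replicate is given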
eIF4H FP inh retest: also measured in eIF4H FP inh; calls as there; inhibition, %; compound at 20 µM; confirmation average;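 mean of two retest wells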
PABP FP inh retest: further read-out of PABP FP inh, marked with its call; inhibition, %; compound at 20 µM; confirmation repeats;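 mean of two retest wells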
MT1-MMP act inh RFP: also measured in MT1-MMP act inh; calls as there; RFP signal change, %; measured here: RFP expression control read;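 0 = vehicle wells; hits needed this value within 50% of zero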
The depositor's hits bear a star; i = inactive; ? = inconclusive; / = not tested or not shown. This is a subset, so the mix of outcomes need not match the whole.

SMILES	Rce1 inhib	Yeast UUG start	Env fusion inh	eIF4H FP inh	MT1-MMP act inh	MT1-MMP act inh RFP	PABP FP inh	CSC inhib	others
CCOC(=O)CSc1nnc(NC(=O)c2cccc(S(=O)(=O)N3CCCC3)c2)s1	i	-8	/	-14	-1	6	7	-20
CS(=O)(=O)N1CCC(C(=O)Nc2cccc(Br)c2)CC1	i	-17	-40	0	4	1	-1	5
COc1ccc(N(CC(=O)NCC2CCCO2)C(=O)CCC(=O)Nc2cc(C)on2)cc1OC (stereo not given)	i	-2	-1	-2	-1	0	5	-7
Cc1cc(C)nc(N2CCN(C(=O)CCC(=O)Nc3nnc(CC(C)C)s3)CC2)n1	i	/	7	-3	0	0	-5	0
COc1cc(NC(=O)CN2CCN(c3ccccn3)CC2)cc(OC)c1OC	/	-17	21	-4	-1	-1	-8	1
CCOc1ccc(CCNC(=O)Nc2ccccc2C)cc1OCC	i	-12	13	-9	0	-3	1	6
Cc1ccc2nc(N3CCN(S(=O)(=O)c4ccc(C)c(Cl)c4)CC3)c(C#N)cc2c1	i	-21	/	-4	0	-8	-4	3
S=c1[nH]ncn1-c1ccccn1	i	-22	/	-6	4	7	-9	-13
COc1cc([N+](=O)[O-])cc(/C=N/N(CCC#N)C(C)=O)c1O	/	-21	12	-13	-5	-2	-10	5
O=C(CNC(=O)c1ccccc1)OCc1cccc(Br)c1	/	/	-7	-4	1	2	0	-10
Cc1ccc(OCC(=O)N(C)Cc2ccccc2)c([N+](=O)[O-])n1	i	-1	-9	0	-1	5	1	4
O=C(CCSc1ccccc1)Nc1ccccc1Br	i	-8	-18	-12	-1	-4	4	-14
O=C(NNc1ccccn1)c1ccc(Cl)nc1	/	/	-11	-6	5	9	-3	9
COc1ccc(Cl)c(Cn2c(NCCCN(C)C)nc3c2c(=O)n(C)c(=O)n3C)c1	/	-11	/	2	-3	1	6	-14
N#C/C(=C\c1c(N2CCC(C(N)=O)CC2)nc2ccccn2c1=O)S(=O)(=O)c1ccc(Cl)cc1	i	/	8	-10	-1	3	0	5
O=S(=O)(N/N=C1/CC(c2ccccc2)Oc2ccccc21)c1ccc(Br)cc1 (stereo not given)	i	-2	-3	-4	-3	-11	9	89*
Cc1nc(C(=O)O)nn1-c1ccc([N+](=O)[O-])cc1	i	/	-10	3	4	3	10	-4
CCOC(=O)CCSc1cc(C)c2ccccc2n1	i	/	-6	2	-1	2	-8	3
Nc1nc2ccc(Cl)cc2[nH]1	/	-9	0	/	-1	0	/	/
COc1cn(-c2ccccc2)nc1C(=O)NCc1ccccc1	i	3	-1	0	2	2	-5	-7
CCN(CC(=O)Nc1ccc(OC)cc1)C(=O)c1cc(S(=O)(=O)N2CCOCC2)ccc1N1CCCC1	i	-17	-176	/	-6	-1	/	-4
CCSC1=C(C#N)C2(CCCCC2)C(C#N)C(=O)N1 (stereo not given)	i	-11	-27	-7	3	0	11	-5
CC(C)(C)c1cc(CCC(=O)N2CCCC2)cc(C(C)(C)C)c1O	i	-3	2	-2	-10	-9	2	-6
CCN(CC(=O)Nc1ccc(NC(C)=O)cc1)C(=O)c1c(-c2c(F)cccc2Cl)noc1C	i	-12	/	7	0	-1	-6	-11
CCOC(=O)c1sc2nc(C)nc(NC3CCC(O)CC3)c2c1C (stereo not given)	i	-18	-1	-8	1	0	-13	-1
O=C(NCC(=O)N(c1cnc2ccccc2c1)C(C(=O)NC1CCCC1)c1ccncc1)c1ccco1 (stereo not given)	i	-17	/	-9	-2	0	-3	-5
NC(Cc1ccc(C(F)(F)F)cc1)c1csc(Nc2nccc(C(F)(F)F)n2)n1 (stereo not given)	/	-14	24	/	4	8	/	/
OC1CCCN(CC(O)c2ccccc2)C1 (stereo not given)	i	-12	0	-5	0	0	-2	-12
COc1ccc(CCN2C(=O)CC(NNc3ccc([N+](=O)[O-])cc3)C2=O)cc1OC (stereo not given)	i	/	1	-2	-4	-1	0	/
CC(=O)Nc1ccc(S(=O)(=O)N2CCC3(CC2)OCCO3)cc1	i	-11	10	-1	-1	2	-1	4

The list goes on, overlapping the part above by 6 compounds.
SMILES	Rce1 inhib	Yeast UUG start	Env fusion inh	eIF4H FP inh	MT1-MMP act inh	MT1-MMP act inh RFP	PABP FP inh	CSC inhib	others
CCOC(=O)c1sc2nc(C)nc(NC3CCC(O)CC3)c2c1C (stereo not given)	i	-18	-1	-8	1	0	-13	-1
O=C(NCC(=O)N(c1cnc2ccccc2c1)C(C(=O)NC1CCCC1)c1ccncc1)c1ccco1 (stereo not given)	i	-17	/	-9	-2	0	-3	-5
NC(Cc1ccc(C(F)(F)F)cc1)c1csc(Nc2nccc(C(F)(F)F)n2)n1 (stereo not given)	/	-14	24	/	4	8	/	/
OC1CCCN(CC(O)c2ccccc2)C1 (stereo not given)	i	-12	0	-5	0	0	-2	-12
COc1ccc(CCN2C(=O)CC(NNc3ccc([N+](=O)[O-])cc3)C2=O)cc1OC (stereo not given)	i	/	1	-2	-4	-1	0	/
CC(=O)Nc1ccc(S(=O)(=O)N2CCC3(CC2)OCCO3)cc1	i	-11	10	-1	-1	2	-1	4
CC(=O)C1=C(O)C(=O)N(C)C1c1ccccc1F (stereo not given)	i	-19	/	-2	2	1	2	-1
COc1ccc(C2C(C(=O)N3CCCC3)c3cc(OC)c(OC)cc3C(=O)N2C)cc1 (stereo not given)	/	-2	-9	-1	0	2	-10	-6
Fc1ccc(-c2cn(-c3ccccc3)c3[n+]2CCS3)cc1	i	4	-14	-1	1	-11	0	1
CCc1c(C)c(C#N)c2nc3ccccc3n2c1-n1nc(C)cc1C	i	-11	-1	-1	0	6	9	-12
CCCn1cnc2sc(C(N)=O)c(C)c2c1=O	i	-8	/	-6	1	9	-3	0
Cc1nc2ccccn2c1C(=O)N/N=C/c1ccc([N+](=O)[O-])o1	i	/	-31	95	-9	-13	10	12	eIF4H FP inh retest=-10;PABP FP inh retest=4
Cc1ccccc1CC1(CO)CCCN(Cc2c(C)nn(C)c2Cl)C1 (stereo not given)	/	/	-7	-11	-5	-6	-2	-3
Cc1cc(C)n(-c2cc(N3CCN(S(=O)(=O)c4ccc(Br)cc4)CC3)ccc2[N+](=O)[O-])n1	i	-19	5	4	2	-5	-6	-1
CC(C)NS(=O)(=O)c1ccc(OCC(=O)NCc2ccccc2)cc1	i	-8	/	-2	2	1	0	-14
COC(=O)c1ccc(/C=C/C(=O)c2ccc(OC)c(OC)c2)cc1	i	-10	/	-5	-4	2	-5	/

Reprinted from the part before: two compounds, followed by the next part.
SMILES	Rce1 inhib	Yeast UUG start	Env fusion inh	eIF4H FP inh	MT1-MMP act inh	MT1-MMP act inh RFP	PABP FP inh	CSC inhib	others
CC(C)NS(=O)(=O)c1ccc(OCC(=O)NCc2ccccc2)cc1	i	-8	/	-2	2	1	0	-14
COC(=O)c1ccc(/C=C/C(=O)c2ccc(OC)c(OC)c2)cc1	i	-10	/	-5	-4	2	-5	/
Cc1cccc2nc(CSc3nc4[nH]ncc4c(=O)n3-c3cccc(Cl)c3)cc(=O)n12	i	-16	-3	-10	-16	-21	13	11
CN1C[C@@H]2C(c3ccc(C(F)(F)F)cc3)C3(c4ccc(C#N)cc4)CC2(C3)[C@H]1c1ccccc1 (stereo not given in full)	i	4	8	0	-7	-8	-4	14
CC(=O)Nc1ccc(S(=O)(=O)NCCSc2ccccn2)cc1	i	-4	/	60*	-2	-1	40*	3	eIF4H FP inh retest=95*;PABP FP inh retest=66*
O=C(c1cc(COc2ccc(F)cc2F)on1)N1CC2C[C@@H]3CC1C[C@H](C2)C3	i	-14	-34	-7	-2	-5	-5	3
CN(C)S(=O)(=O)Oc1ccsc1C(=O)Nc1ccc(Cl)c(Cl)c1	i	-6	?	5	1	-5	6	24
Cc1cccc(-c2cccc(NC(=O)C3CCCN(Cc4cccnc4)C3)c2)c1 (stereo not given)	i	-12	15	2	/	/	0	22
CCN(CC(=O)Nc1ccc(NC(C)=O)cc1)C(=O)c1c(C)nn(-c2ccc(F)cc2)c1Cl	/	-2	5	/	-1	5	/	-4
N#Cc1cccc(NC(=O)CSc2nnc(-c3n[nH]c4ccccc34)o2)c1	i	/	-25	-1	2	1	6	4
Cc1ccc(NC(=O)C2CCN(C(=O)N3CCOc4ccccc43)CC2)cc1	i	-4	12	10	2	-8	-1	-14
CCOC(=O)C1CCN(S(=O)(=O)c2c(C(=O)N3CCCCC3)c(C)n(C)c2C)CC1	i	11	-10	-2	-2	3	7	-13
C[C@H](CO)N1C[C@H](C)[C@H](CN(C)C(=O)N[C@H](C)c2ccccc2)OCc2ccccc2-c2c(n(C)c3ccccc23)C1=O	/	-2	75*	/	-2	-1	/	/
COc1ccc(CCNC(=O)c2nonc2N)cc1OC	i	-1	-147	-4	10	-1	-3	8
CCn1cnc2scc(-c3ccc(C)c(C)c3)c2c1=O	i	/	-12	-19	-2	8	-7	-16
COc1ccc(C(=O)C2CCN(CC(=O)Nc3ccccc3F)CC2)cc1	i	-11	5	-4	4	2	0	-7
O=C(Oc1ccc2c(c1)OCO2)c1ccc(F)cc1Cl	i	-9	-47	-13	-4	-9	-4	1
COCC(C)n1c(C)cc(C(=O)COC(=O)CNC(=O)c2ccccc2)c1C (stereo not given)	i	/	12	15	-1	4	2	-11
CCCCOc1ccccc1NC(=O)c1ccco1	i	2	/	-8	-2	-4	-5	12
CCc1nnc(NC(=O)C2CCC(CNc3c(N4CCC(C)CC4)c(=O)c3=O)CC2)s1 (stereo not given)	i	-9	-5	11	3	5	9	-6
Cc1c(C(=O)NC2CC(C)(C)NC(C)(C)C2)oc2c(Cl)cccc12	/	-4	-28	/	-6	2	/	/
CCOc1ccccc1N(CC(=O)Nc1ccc(OC)cc1)S(=O)(=O)c1ccccc1	i	-1	13	-6	-7	1	1	-3
COc1ccc(C(C)=O)cc1CSc1nnc(Nc2c(C)cccc2C)s1	i	/	/	-5	-6	-4	38	19
CC(C)C(C)(C#N)NC(=O)CSc1nc2scc(-c3ccco3)c2c(=O)n1-c1ccccc1 (stereo not given)	i	-17	16	22	-2	-5	42	3
CCN(CC)S(=O)(=O)c1cccc(C(=O)N/N=C/c2ccc([N+](=O)[O-])o2)c1	i	/	-14	41	-6	-7	14	12
CCN(CC(=O)Nc1cccc(OC)c1)CC(=O)Nc1cccc2ccccc12	/	-9	5	/	-1	-2	/	-1
S=C(NCCCN1CCOCC1)NN=C1c2ccccc2-c2ccccc21	/	-9	-43	/	4	5	/	/
O=C1c2oc3ccccc3c(=O)c2C(c2cccc(F)c2)N1CCCO (stereo not given)	i	2	/	4	-1	3	-6	-18
C[C@H](CO)N1C[C@H](C)[C@H](CN(C)Cc2ccc(Oc3ccccc3)cc2)Oc2cc(Br)ccc2S1(=O)=O	/	1	10	/	-9	-13	/	/

Screening results as filed in PubChem.
